NPYLR7 ag: agonists of mosquito NPYLR7 receptor, primary screen, cell-based, Aedes aegypti, calcium fluorescence, mosquito biting behavior | activation, % at 10 µM | HEK293T NPYLR7/Galpha15, GCaMP6s calcium fluorescence | Aedes aegypti neuropeptide Y-like receptor 7 (NPYLR7) | hit rate 0.15% among 270,000; in the data active = activation above about 40%;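 also: 0% = vehicle and 100% = reference agonist at the receptor; some compounds past the cut are filed as inactive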
NPYLR7 ag max-min: further read-out of NPYLR7 ag, marked with its call; activation, %; measured here: Max-Min RFU normalised activation; some inactives read as strong as hits;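 span of the calcium signal over five minutes; 0% = vehicle and 100% = native peptide agonist; compound fluorescence can raise it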
Active calls of the source: *; & = joins results of further samples. The list is partial; count on the stated rates, not on these rows.

SMILES	NPYLR7 ag	NPYLR7 ag max-min
CC(C)[C@H]1CC[C@H](C)CC1OCC(=O)N[C@H](Cc1ccccc1)C(=O)N1CCC(C(=O)N2CCOCC2)CC1 (stereo partly drawn)	25	20
O=C(O)c1nn(-c2ccc(Cl)cc2)ccc1=O	13	13
Cc1cccc(C(=O)Nc2ccccc2C(=O)N(C)c2ccccn2)c1	12	8
O=C(c1ccc(Cl)c(Cl)c1)N1CCc2nc(Cc3cccc(F)c3)nc(N3CCOCC3)c2C1	17	17
COc1ccc(OC)c(C2SCC(=O)N(CC(=O)NCc3ccc(F)cc3)c3c2c(-c2ccccc2)nn3-c2ccccc2Cl)c1 (stereo not drawn)	22	25
O=C(NC1CCCCC1)c1c(O)c2c([nH]c1=O)CCCC2	1	0
CN(Cc1ccccc1)C1(C(=O)NCCN2CCNC2=O)Cc2ccccc2C1	10	-2
CCOC(=O)c1ccc(NC(=O)c2sc(NC(=O)C(C)(C)C)c(C(=O)OCC)c2C)cc1	-7	-4
CCOC(=NCCN(C)C)NC(=O)c1cccc(C(F)(F)F)c1	19	17
CCOC(=O)C1CCN(CC(=O)N2N=C(c3ccc(C)c(C)c3)CC2c2ccc(OC)cc2OC)CC1 (stereo not drawn)	12	13
CC(=O)N(CCN(C)C)Cc1csc(COc2ccc(Cl)cc2)n1	-2	-11
CCOC(=O)c1sc2ncc([N+](=O)[O-])cc2c1N	-7	-14
Cc1ccccc1OCC(=O)N1CCC2(CN(C)C(=O)O2)C1 (stereo not drawn)	9	5
CO[C@H]1CN(Cc2cc(-c3ccccn3)ccc2OCC(=O)O)CC[C@H]1N	0	11
CCn1cc(C(=O)N2CCN(CCOC)CC2)c2nn(-c3ccccc3)c(=O)c-2c1	-4	-8
COc1ccc(-c2ccnc(SCc3ccc(C(=O)N4C5CCC4CC(Oc4cccc(C#N)c4)C5)cc3)n2)cc1 (stereo not drawn)	-9	-12
CCN(CCO)CCCC(C)Nc1ccnc2cc(Cl)ccc12 (stereo not drawn)	14&-8	-3&-12
COc1ccc(C(=O)N2CCCC(OCc3cc(F)cc(F)c3)C2)cc1 (stereo not drawn)	-10	-6
O=C(Nc1cccc(S(=O)(=O)C(F)F)c1)N1CCSCC1	5	1
CCCCCNC(=O)c1cc(-c2ccc(F)cc2)nc2cc(C(C)(C)C)nn12	6	3
COc1ccc(CCN(Cc2ccc(C)o2)C(=O)CN(C(=O)C2CCC2)C2CCCCC2)cc1OC	9	8
CCC1CCc2ccccc2N1C(=O)c1ccc2nnc(C)n2c1 (stereo not drawn)	-3	-3
Cc1cccc(COC(CN2CCN(S(=O)(=O)c3c(F)cccc3F)CC2)c2ccc(Cl)cc2)c1 (stereo not drawn)	23	16
NS(=O)(=O)c1cnccc1N1CCCC1	2	0
Cc1cc(C(=O)N=c2sc3cc(C(C)C)ccc3n2C)no1	11	6
COc1ccc(CCNC(=O)c2ccc(-c3cc(-c4ccc(Cl)cc4)[nH]n3)cc2)cc1	19	15
Cc1noc(-c2ccccc2Cl)c1C(=O)N1CCC(Cc2ccc3c(c2)OCO3)CC1	0	12
Cc1cc(C)cc(C(=O)NCC(=O)N2CCN(Cc3ccc(Br)s3)CC2)c1	-4	-6
CS(=O)(=O)Cc1nc2ccccc2n1Cc1ccc(F)cc1C#N	11	6
CCN1CCN(c2c(CN(CCOC)C(=O)COc3ccccc3)c(C)nn2-c2cccc(F)c2)CC1	-4	-2
CC(C)N1CCc2c(sc(NC(=O)c3ccc([N+](=O)[O-])o3)c2-c2nc3ccccc3s2)C1	-3	-5
Cc1ccc(S(=O)(=O)N2CCSC2)cc1	6	1
CCCCOc1ccc(C2C3=C(CC(C)(C)CC3=O)OC(=N)C2C#N)cc1OC (stereo not drawn)	-8	-13
O=C(/C=C/c1ccco1)N1CC[C@@H](N2CCN(c3ccccc3F)CC2)[C@H](O)C1	13	7
C#CCOc1ccc(CCNC(=O)c2cc(C)on2)cc1	18	14
Cc1occc1C(=O)N(CCC(=O)NCCC(C)C)C1CC1	4	2
CCn1ccc(C(=O)N(Cc2sccc2C)CC(C)C)n1	-7	-4
COc1cc(NC(=O)c2ccccc2)c(OC)cc1NC(=O)CN1CCc2ccccc2C1	-6	-14
CCCCOc1ccc(S(=O)(=O)NC(=O)C2(C)CCN2C(=O)Cc2cccs2)cc1 (stereo not drawn)	-2	-9
COc1ccc(C(=O)NC(Cc2ccccc2)C(=O)Nc2nnc(-c3cccc(Cl)c3)s2)cc1 (stereo not drawn)	-1	3
O=C(c1cc2ccccc2oc1=O)N1CCCC1	2	0
Nc1nc(-c2cccc(C(F)(F)F)c2)cc(=O)[nH]1	3	1
CCOc1ccc(-c2cc(=O)n(CC(=O)N(Cc3ccccc3)c3ccccc3)cn2)cc1	13	5
NCC1CCN(Cc2cnc(NCc3ccccc3)nc2)C1 (stereo not drawn)	1	1
CCc1ccc(C(=O)N2CCN(c3cc(Oc4ccc(C)cc4OC)ncn3)CC2)cc1	5	11

An excerpt of these results, as labelled records.
Cc1ccc(S(=O)(=O)N2CCSC2)cc1
  NPYLR7 ag: 6
  NPYLR7 ag max-min: 1
CCn1ccc(C(=O)N(Cc2sccc2C)CC(C)C)n1
  NPYLR7 ag: -7
  NPYLR7 ag max-min: -4
COc1cc(NC(=O)c2ccccc2)c(OC)cc1NC(=O)CN1CCc2ccccc2C1
  NPYLR7 ag: -6
  NPYLR7 ag max-min: -14
COc1ccc(C(=O)NC(Cc2ccccc2)C(=O)Nc2nnc(-c3cccc(Cl)c3)s2)cc1 (stereo not drawn)
  NPYLR7 ag: -1
  NPYLR7 ag max-min: 3

Remaining list, next part
SMILES	NPYLR7 ag	NPYLR7 ag max-min
COc1ccc(/C=C2/SC(=S)N(CC(=O)O)C2=O)cc1[N+](=O)[O-]	11	5
CCN(CC)S(=O)(=O)N1CCC(=Cc2cccc(F)c2)CC1	7	4
COc1ccc2c(C(F)(F)F)cc(=O)oc2c1	-7	-7
CC(=O)c1cccc(NC(=O)C(C)Sc2nnc(-c3ccc(Br)cc3)o2)c1 (stereo not drawn)	-3	7
CSc1ccc(C2C(C#N)=C(C)N=C(C)C2C#N)cc1 (stereo not drawn)	1	-1
CC1CCCCC1NC(=O)NC(=O)CSc1nnc(-c2ccccc2F)n1C (stereo not drawn)	-6	-3
O=C(NN=Cc1c(F)cccc1Cl)c1n[nH]c2c1CCC2	6	10
CCOC(=O)c1c(NC(=O)CSc2nnc3ccccn23)sc(C(C)=O)c1C	-9	-12
Cc1cc(C)cc(CCC(=O)NC2C=CS(=O)(=O)C2)c1 (stereo not drawn)	15	5
CN1CCN2c3ccc(/C=C/C(=O)c4c(O)n(C)c(=O)n(C)c4=O)cc3CC3(C(=O)N(C)C(=O)N(C)C3=O)C2C1 (stereo not drawn)	5	13
Cc1ccc(-c2cn(S(=O)(=O)c3ccc(Cl)cc3)nc2N)cc1	-1	-1
CCCNC(=O)Cn1cnc2c(nnn2CC)c1=O	0	31
Cn1cccc1-c1cc(C(=O)N2CCN(c3ccccc3F)CC2)n(-c2ccccc2)n1	21	23
O=C(Nc1ccc(F)cc1)C1CCN(Cc2c(-c3ccco3)nc3ncccn23)CC1	0	21
COc1ccc(-c2cccc(-n3cncc3C(=O)NCc3cc(C(F)(F)F)ccc3Cl)c2)cc1OC	12	9

Some values from above:
For NPYLR7 ag, COc1ccc(/C=C2/SC(=S)N(CC(=O)O)C2=O)cc1[N+](=O)[O-] is listed with 11
For NPYLR7 ag max-min, O=C(Nc1ccc(F)cc1)C1CCN(Cc2c(-c3ccco3)nc3ncccn23)CC1 is listed with 21
For NPYLR7 ag max-min, CCN(CC)S(=O)(=O)N1CCC(=Cc2cccc(F)c2)CC1 is listed with 4

Remaining list, next part
SMILES	NPYLR7 ag	NPYLR7 ag max-min
CC1(C(=O)NS(=O)(=O)c2cccc(Cl)c2)CCN1C(=O)COc1ccc(Cl)cc1 (stereo not drawn)	5	4
CC1CNC(=O)CCN1Cc1ccc(CN(C)S(C)(=O)=O)o1 (stereo not drawn)	3	2
COc1ccc(C2c3ccsc3CCN2CC(=O)N2CCN(S(=O)(=O)c3ccc(Cl)cc3)C(C)C2)cc1 (stereo not drawn)	14	4
COCCNC(=O)c1coc(CN(CCc2c[nH]c3ccccc23)Cc2ccc(F)cc2F)n1	9	39
COc1cccc2cc(C(=O)N3CCN(Cc4ccccc4)CC3)c(=O)oc12	-1	-3
Cc1ccsc1CCNC(=O)c1ccccc1C1CCNC1 (stereo not drawn)	-1	7
N#CC(=Cc1ccccc1I)c1nc(-c2ccccc2)cs1	27	17
CCCC(=O)N(Cc1ccccc1)c1nc2c(OC)ccc(OC)c2s1	-1	-7
CCOC(=O)C(C)(C)NCc1nc(CC(C)C)no1	3	3
N#CC(=C(O)C[n+]1ccccc1)c1nc2ccccc2[nH]1	1	48
CCOC(=O)C1(Cc2ccc(Cl)cc2)CCN(C(=O)c2ccccc2N(C)C)CC1	7	-3
Cc1nn(C)c(C)c1NC(=O)c1ccc(Br)o1	10&-8	6&-7
CCNC(=O)c1coc(CN(Cc2ccc(C(F)(F)F)cc2)Cc2ccc3c(c2)OCO3)n1	16	21
O=C1NCCN(Cc2ccc3ccccc3c2)C1CC(=O)N1CCc2c(Cl)cccc2C1 (stereo not drawn)	4	-2
C#CCNC(=O)C(C)N1Cc2c(OC)ccc(OC)c2C(O)C1 (stereo not drawn)	0	17
CC1CN(S(=O)(=O)N(C)CC23CC4CC(CC(C4)C2)C3)CC(C)O1 (stereo not drawn)	-8	-9
O=C(c1cccc(F)c1)N1CCN(C(C(=O)N2CCOCC2)C2CCCC2)CC1 (stereo not drawn)	-4	-1
Cc1cccc2[nH]c(CCNC(=O)C(C)n3cc(Cl)cn3)nc12 (stereo not drawn)	4	4
CCOC(=O)c1cc(-c2cccc(NC(=O)C3CCCCC3)c2)n(-c2ccccc2OC)n1	26	13
Cc1cc(F)ccc1NC(=O)CCC1CCCN(C(=O)CCc2c(C)noc2C)C1 (stereo not drawn)	7	6
CC(c1nc2ccccc2c(=O)[nH]1)N(C)Cc1cccs1 (stereo not drawn)	4	2
CCOC(=O)C(=O)N(C)c1ccc(-c2onc3c2CCC3)cc1	9	15
C=C(C)CNC(=S)NN=C(C)c1ccc(Cl)s1	2	1
O=C(NCCN1CCCOC1=O)c1cnn2c1CCCC2	-3	-3
CSc1ccccc1CN1CCC(Cc2ccc(-n3cccc3)cc2)CC1	-2	-3
Cc1nn(C)c(C)c1CC(=O)Nc1ccc(-n2cccn2)c(Cl)c1	-5	-5
CC(C)CCn1c(SC2CCOC2=O)nc2cc(Cl)ccc2c1=O (stereo not drawn)	-4	-4
FC(F)(F)C(OCc1nc(CCc2ccccc2)n[nH]1)c1ccccc1 (stereo not drawn)	3	2
COc1ccc(Cl)cc1N1C(=O)C2C3C=CC(C3)C2C1=O (stereo not drawn)	-11	-14
COc1ccc2n[nH]c(CN(C)Cc3nc(-c4cccnc4)no3)c2c1	3	4
COc1ccc(C(CC(=O)NCc2ccncc2)c2ccccc2)cc1 (stereo not drawn)	4	0
Cc1ccccc1-n1c(-c2ccc(Cl)cc2)cc(C(=O)N2CCN(C(=O)c3ccco3)CC2)c1C	-1	5
O=C(c1nc2sccn2c1CN1CCC(c2ccccc2Cl)C1)N1CCCCC1 (stereo not drawn)	5	-2
c1ccc(-c2cccc(-c3cc(Nc4ccc(N5CCOCC5)cc4)ncn3)c2)cc1	1	-1
c1cncc(Cn2cccc2)c1	9	5
CCOC(=O)C(CC)Sc1ccc2nnc(CCNS(=O)(=O)c3ccc(C)cc3)n2n1 (stereo not drawn)	-16	-18
CCCC(O)CN(CCOC)Cc1ccsc1 (stereo not drawn)	2	9
N#CCc1ccc(NC(=O)c2cc3ccccc3oc2=O)cc1	30	28
COc1ccc(N2CC(NC(=O)NCc3ccc4[nH]c(C)cc4c3)CC2=O)cc1OC (stereo not drawn)	-5	0
O=C1NC2(CCN(Cc3ccsc3)CC2)Nc2cc(Cl)ccc21	1	11
Cc1cccc(C)c1OCCCN(C)C(=O)c1ccc2nccn2c1	-3	-10
COc1ccc(C(=O)N2CCN(C(=O)c3ccc4nc(C5CC5)oc4c3)CC2)cc1	2	0
CC(C)(C)NC(=O)Cn1nnc(-c2ccccc2)n1	8	7
COc1cc(CN2C(=O)C(C)ON=C2C2CC2)cc(OC)c1 (stereo not drawn)	8	5
CCOC(=O)c1cnc(-c2cccnc2)nc1NCCCn1ccnc1	-1	0
O=C(NC1CCN(c2ccccc2C(=O)NCC2CCCO2)CC1)c1cccc(Br)c1 (stereo not drawn)	1	11
Cc1ccc(NC(=O)CCN2C(=O)c3ccccc3C2=O)cc1C	4	0
COc1cccc(CN(C)Cc2nc(Cc3ccccc3Cl)no2)c1	15	8
CC(CCc1ccccc1)NCCN(C)S(C)(=O)=O (stereo not drawn)	5	4
Cc1cccn2c(=O)c3cc(C(=O)N(C(C)C)C(C)C)sc3nc12	10&11	0&4
CC1CC1CN(C(=O)Cc1ccc(C#N)cc1)C(C)C (stereo not drawn)	1	-2
O=S(=O)(Nc1cnn(CC2CCCO2)c1)c1ccccc1F (stereo not drawn)	-3	-3
Cc1cc(C)n(-c2cc(NCCNC(=O)c3cccc(Cl)c3)nc(C)n2)n1	-4	-4
CC(N)=C(C#N)C(=O)COC(=O)c1ncc(Cl)c(Cl)c1Cl	1	4

Reprinted at random: five compounds from above, in no set order.
SMILES	NPYLR7 ag	NPYLR7 ag max-min
O=S(=O)(Nc1cnn(CC2CCCO2)c1)c1ccccc1F (stereo not drawn)	-3	-3
Cc1cc(C)n(-c2cc(NCCNC(=O)c3cccc(Cl)c3)nc(C)n2)n1	-4	-4
CC1CC1CN(C(=O)Cc1ccc(C#N)cc1)C(C)C (stereo not drawn)	1	-2
CC(CCc1ccccc1)NCCN(C)S(C)(=O)=O (stereo not drawn)	5	4
CC(N)=C(C#N)C(=O)COC(=O)c1ncc(Cl)c(Cl)c1Cl	1	4
